Screens (PubChem)
UUG fidelity – modulators of yeast start codon fidelity, primary screen, whole organism, S. cerevisiae, single point, plate reader. actives 0.13% (n = 350,000). activity score, % at 18.7 µM. S. cerevisiae UUG-firefly luciferase reporter, luminescence/redox ratio;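 active = replicate mean at a twofold rise or more, about +100% in these data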;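 also: firefly luciferase made from a UUG start codon reports start codon fidelity; reporter light over untreated wells divided by growth signal over untreated wells; some hits fall short of that in this replicate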
MT1-MMP act inh – blockers of MT1-MMP proenzyme processing, primary screen, HT1080 RFP-PRO-GFP cells, GFP/RFP fluorescence; actives 0.061% (n = 360,000); GFP/RFP ratio fluorescence, overnight; percent of plate control window, DMSO zero; GFP/RFP ratio change, % at 20 µM;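 active = GFP/RFP ratio change of at least 30% with cell ATP level not reduced by more than half and red fluorescence within 50% of control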; also: strong numbers were not always called active
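Assay system: HT1080 cells carrying an RFP-PRO-GFP reporter | Dosing: Single dose of 20 µM compound, 1% DMSO final | Incubation: Cells overnight before dosing, compound overnight, 37 °C, 5% CO2 | Evaluation: GFP/RFP fluorescence ratio | Control set: DMSO and RFP-L50D-GFP cell wells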
eIF4H inh – human eIF4H binding inhibitors, primary screen, translation initiation inhibitor project, biochemical, uHTS, fluorescence polarization | Eukaryotic translation initiation factor 4H (Homo sapiens), Q15056 | eIF4H fluorescence polarization binding assay | inhibition, % at 35 µM | actives 0.94% (n = 290,000);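 active = 50% or more with normal probe brightness, or confirmed in later tests; about a fifth of its hits are not listed in these tables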;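 also: calls also rest on retests at 20 µM and on dose response follow-up; 0% = protein and probe with vehicle and 100% = probe without protein; strong numbers were not always called active; many hits fall short of the cut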
CSC inhib – cancer stem cell viability inhibitors, primary screen, luminescence; cancer stem cell-like cells viability; inhibition, % at 7.5 µM; actives 1.1% (n = 300,000); AID 2717, 2010;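 active = mean at 75% or more and at least half the replicates too; tested in HMLE shEcad cells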;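 also: 0% = median of negative and 100% = median of positive control wells; the first replicate is given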
HIV Env fusion – inhibitors of HIV-1 Env-driven cell-cell fusion, primary screen, HeLa-JRFL effector, CEM21 target cells, luciferase | inhibition, % at 12.3 µM | actives 1.1% (n = 360,000);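 active = mean replicate inhibition score of at least 50 and every replicate individually at or above 50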;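 also: 0% = plate neutral controls and 100% = maraviroc near 300 nM; one replicate is shown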
PABP FP inh – PABP poly(A) RNA binding inhibitors, primary screen, biochemical, fluorescence polarization, uHTS | Polyadenylate-binding protein 1 (Homo sapiens), P11940 | inhibition, % at 35 µM | actives 1% (n = 290,000) | AID 2014, 2009;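 active = 50% or more with normal probe brightness, or confirmed in later tests; about a fifth of its hits are not listed in these tables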;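 also: calls also rest on retests at 20 µM and on dose response follow-up; controls were probe without protein and protein plus probe with vehicle; some compounds called inactive have numbers as strong as hits; many hits fall short of the cut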
Target sequence (P11940 whole entry, looked up): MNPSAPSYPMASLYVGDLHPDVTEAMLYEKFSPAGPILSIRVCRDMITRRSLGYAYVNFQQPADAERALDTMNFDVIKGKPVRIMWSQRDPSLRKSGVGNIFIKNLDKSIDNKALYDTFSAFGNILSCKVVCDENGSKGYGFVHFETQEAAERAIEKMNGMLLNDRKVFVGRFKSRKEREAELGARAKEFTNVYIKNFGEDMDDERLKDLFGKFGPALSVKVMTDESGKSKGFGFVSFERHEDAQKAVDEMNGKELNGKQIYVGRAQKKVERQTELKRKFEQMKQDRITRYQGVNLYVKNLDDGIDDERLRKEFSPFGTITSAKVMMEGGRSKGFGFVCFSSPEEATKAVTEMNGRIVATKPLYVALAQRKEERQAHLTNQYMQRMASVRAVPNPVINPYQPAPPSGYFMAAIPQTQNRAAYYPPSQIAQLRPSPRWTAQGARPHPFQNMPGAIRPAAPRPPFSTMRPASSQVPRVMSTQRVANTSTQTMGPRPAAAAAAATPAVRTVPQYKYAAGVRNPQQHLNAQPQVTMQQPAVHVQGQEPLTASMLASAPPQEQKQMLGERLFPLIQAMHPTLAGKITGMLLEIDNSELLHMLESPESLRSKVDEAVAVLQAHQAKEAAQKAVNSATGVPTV
Rce1 inhib – yeast Rce1p protease inhibitors, primary screen, biochemical, fluorescence, cell-free homogeneous; CAAX prenyl protease 2 (Saccharomyces cerevisiae (strain ATCC 204508 / S288c)), Q03530; yeast membranes, quenched prenylated peptide cleavage fluorescence; calls only; actives 0.27% (n = 290,000); AID 2563, 2010;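 active = fall in fluorescence gain of 50% or more versus controls, with final raw signal at or below 3038400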;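 also: plate controls were neutral control wells for no effect and wells lacking membranes for full effect; tested at 10 µM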
MT1-MMP act inh RFP – further read-out of MT1-MMP act inh, marked with its call; RFP signal change, %; measured here: RFP expression control read;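 0 = vehicle wells; hits needed this value within 50% of zero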
An asterisk follows results filed as active; i = inactive; · = no result given; & = joins results of further samples. These rows are one share of the data. The share of hits here may be higher or lower than overall.

SMILES	UUG fidelity	MT1-MMP act inh	MT1-MMP act inh RFP	eIF4H inh	CSC inhib	HIV Env fusion	PABP FP inh	Rce1 inhib
CCOC(=O)c1c(NC(=O)CSc2nnnn2C)sc(CC)c1C	5	-2	-9	-3	-16	28	5	i
CC(=O)c1c(C)[nH]c(C(=O)OCC(=O)Nc2cccc(S(=O)(=O)N3CCCC3)c2)c1C	-10	13	-21	-13	1	35	-10	i
CCOC(=O)c1c(-c2ccccc2)csc1NC(=O)C1CCCO1 (stereo unspecified)	·	0	-5	-2	35	-124	5	i
COc1ccc(/C=N/NC(=O)C(=O)N2CCCC2)cc1OC	·	4	5	5	-4	-5	8	i
COc1ccc(NC(=O)Nc2cccc3c2O[C@H](CN(C)S(=O)(=O)c2ccc(F)cc2)[C@@H](C)CN([C@H](C)CO)C3=O)cc1	25	1	0	·	-18	-47	·	·
CCCCCCCCC(NC(=O)c1ccc(C#N)cc1)C(=O)NCCC (stereo unspecified)	-7	-11	-6	·	-9	-37	·	·
CCNC(=S)N/N=C(\C)c1cccc([N+](=O)[O-])c1	·	-1	-4	-8	-12	-11	5	i
CCOCCCNC(=O)c1ccc2c(c1)N=C(CC)c1cc(Br)ccc1S2	-2	2	-10	-11	69	-2	10	i
C[C@]12CCC(=O)C=C1CC[C@@H]1[C@@H]2[C@@H](O)C[C@@]2(C)[C@H]1CC[C@]2(O)C(=O)CO	-9&-19	-2&0	1&2	-4	-4	-5	0	i
COCCCN1C(=O)c2ccc(C(=O)OCC(=O)NCc3ccccc3OC)cc2C1=O	-21	-1	-7	-14	-8	·	13	i
COC(=O)/C(C#N)=C/c1c(Oc2cccc(C)c2)nc2ccccn2c1=O	·	4	-1	3	-19	7	3	i
O=C(O)C1CCN(C(=O)COc2ccc3c(c2)oc(=O)c2ccccc23)CC1	-14	0	-1	2	-7	·	-3	i
COC(=O)c1[nH]c2ccc(Cl)cc2c1NC(=O)CCN1CCOCC1	-8	2	3	-5	-9	·	5	i
Cc1ccc(C(=O)N(CN2CCCC2=O)c2ccccc2)cc1	·	0	4	-4	-3	15	-12	i
Cc1oc(-c2cc(Cl)cc(Cl)c2)cc1C(=O)NCCc1ccccc1	-14	-3	-2	-1	49	16	12	i
C=CCn1c(C)nnc1SCC(=O)Nc1ccccc1C(=O)NC1CC1	-19	4	-2	·	·	6	·	·
CC(=O)c1ccc(N2CCN(C(=O)/C=C/c3ccc4ccccc4n3)CC2)cc1	·	-4	-16	-4	27	-4	0	i
CCCn1c(C(O)c2cccc(OC)c2)nc2ccccc21 (stereo unspecified)	-32	0	1	-2	·	-5	5	i
C/C(=N\NC(=O)CCc1ccc(S(=O)(=O)N2CCOCC2)cc1)c1ccccc1Cl	1	0	-2	-11	6	-20	4	i
CCC(C)(C)NC(=O)CN(Cc1ccc2c(c1)OCO2)C(=O)CCC(=O)Nc1ccccn1	-11	3	8	3	·	·	-8	i
COc1cc(CCC(=O)OCC(=O)Nc2ccc(F)cc2F)cc(OC)c1OC	-4	0	1	1	-5	2	12	i
O=C(CC1(O)C(=O)Nc2ccccc21)c1ccc(-n2cnnn2)cc1 (stereo unspecified)	0	-1	9	-4	-18	-21	7	i
O=C1c2ccccc2C(Nc2ccc3c(c2)OCO3)N1Cc1ccc2c(c1)OCO2 (stereo unspecified)	-2	-6	-3	11	18	7	-16	i
NC(=S)Nc1cccc2[nH]ccc12	·	-3	2	-4	-8	7	1	i
COCC(CN1CCN(C2=NS(=O)(=O)c3ccccc32)CC1)OC(=O)c1ccc(OC)cc1 (stereo unspecified)	-9	-2	2	8	-6	-11	3	i

Entries listed so far containing a Cl atom (3):
SMILES	UUG fidelity	MT1-MMP act inh	MT1-MMP act inh RFP	eIF4H inh	CSC inhib	HIV Env fusion	PABP FP inh	Rce1 inhib
COC(=O)c1[nH]c2ccc(Cl)cc2c1NC(=O)CCN1CCOCC1	-8	2	3	-5	-9	·	5	i
Cc1oc(-c2cc(Cl)cc(Cl)c2)cc1C(=O)NCCc1ccccc1	-14	-3	-2	-1	49	16	12	i
C/C(=N\NC(=O)CCc1ccc(S(=O)(=O)N2CCOCC2)cc1)c1ccccc1Cl	1	0	-2	-11	6	-20	4	i

Compounds above containing a thiophene ring, fused or not:
SMILES	UUG fidelity	MT1-MMP act inh	MT1-MMP act inh RFP	eIF4H inh	CSC inhib	HIV Env fusion	PABP FP inh	Rce1 inhib
CCOC(=O)c1c(NC(=O)CSc2nnnn2C)sc(CC)c1C	5	-2	-9	-3	-16	28	5	i
CCOC(=O)c1c(-c2ccccc2)csc1NC(=O)C1CCCO1 (stereo unspecified)	·	0	-5	-2	35	-124	5	i

More structures follow:
SMILES	UUG fidelity	MT1-MMP act inh	MT1-MMP act inh RFP	eIF4H inh	CSC inhib	HIV Env fusion	PABP FP inh	Rce1 inhib
CSc1ncccc1C(=O)NCC(c1ccco1)N1CCCCC1 (stereo unspecified)	7	-2	0	·	-21	·	·	·
COc1cc(OC)c(C2=NOC(C(=O)Nc3cc(C)nn3-c3ccccc3)C2)cc1Cl (stereo unspecified)	-6	4	-5	4	1	5	6	i
COCCNCC(=O)Nc1ccccc1Sc1ccccc1	·	-2	2	8	-5	-37	-16	i
Cc1cc(C)cc(NC(=S)/C(=C(\[O-])c2ccc(Cl)cc2Cl)[n+]2ccc(C(C)(C)C)cc2)c1	·	-3	1	-11	13	20	-1	i
C[C@H](CO)N1C[C@H](C)[C@@H](CN(C)C(=O)c2cnccn2)Oc2ncc(Br)cc2C1=O	-12	1	2	·	·	9	·	·
Cc1ccc(SCC(=O)NNC(=O)c2cncc(Br)c2)cc1	-15	0	2	·	-16	-45	·	·
Cc1cc(Oc2ncccc2[N+](=O)[O-])c2cc(Cl)ccc2n1	·	-2	-2	-4	2	2	-3	i
CCC(C(=O)NCc1ccco1)N(C(=O)CNS(=O)(=O)c1ccccc1)c1ccc(OC)cc1 (stereo unspecified)	-8	-3	2	5	·	2	12	i
COc1ccc(CCNC(=S)NC(=O)c2ccccc2)cc1OC	·	4	4	3	-16	-26	-3	i
CC(=O)C1C(=O)c2c(cccc2[N+](=O)[O-])C1=Nc1ccc(S(N)(=O)=O)cc1 (stereo unspecified)	·	12	5	15	7	-15	13	i
COCCNC(=O)c1ccc(C(=O)NCCOC)s1	3	14	5	-4	-3	14	7	i
CCN(CC)c1ccc(/C=N/N2C(C)CCCC2C)c(O)c1 (stereo unspecified)	4	8	11	-1	·	73*	-8	i
CC(=O)N1CCN(S(=O)(=O)c2cccc(C(=O)Nc3ccc(OC(F)F)cc3)c2)CC1	-32	6	-6	-3	·	26	-7	i
Cc1ccc(C(C2C(=O)CC(C)(C)CC2=O)C2C(=O)CC(C)(C)CC2=O)s1	-10	-1	2	-12	·	·	-5	·
O=C(CN1C(=O)NC2(CCCCCC2)C1=O)NCc1ccco1	-4	-5	2	-7	34	·	-11	i
CC(Cc1ccccc1)NC(=O)CN1C(=O)c2ccccc2S1(=O)=O (stereo unspecified)	-22	2	4	-13	-17	·	2	·
CCc1noc(C)c1C(=O)NNC(=O)c1ccc(N(CC)CC)cc1	8	15	1	·	-14	·	·	·
C/C(=N\N1C(=O)c2ccccc2NC1c1ccco1)c1ccccc1O (stereo unspecified)	·	-1	-4	-14	-5	-36	-17	i
CCOC(=O)Cn1c(=O)oc2cc(S(=O)(=O)NC(C)(C)CC)ccc21	3	-4	2	8	-2	-9	-1	i
CC(C)c1ccc(NC(=O)COC(=O)[C@H](CCC(N)=O)NC(=O)c2ccc(F)cc2)cc1	·	5	6	1	-15	22	16	i
CSCCC(NC(=O)c1ccccc1)C(=O)O (stereo unspecified)	·	-7	-1	0	4	16	-3	i
Cc1ccc2nc(SCC(=O)Nc3oc(C)c4c(C)n[nH]c(=O)c34)[nH]c2c1	-41	-5	4	·	-13	10	·	·
CCOc1ccc(S(=O)(=O)NN=C(C)c2cccnc2)cc1	-7	-1	-5	·	-4	·	·	·
O=C(Cc1cccs1)N1CCCC(c2nc3c(nnn3Cc3cccc(Cl)c3)c(=O)[nH]2)C1 (stereo unspecified)	·	3	-1	7	·	·	6	i
Cn1c(SCc2ccccc2F)nnc1-c1ccccn1	-3	0	2	2	-1	-19	-13	·

A second format for three compounds above:
The line under a structure holds: UUG fidelity	MT1-MMP act inh	MT1-MMP act inh RFP	eIF4H inh	CSC inhib	HIV Env fusion	PABP FP inh	Rce1 inhib
C[C@H](CO)N1C[C@H](C)[C@@H](CN(C)C(=O)c2cnccn2)Oc2ncc(Br)cc2C1=O
→ -12	1	2	·	·	9	·	·
O=C(CC1(O)C(=O)Nc2ccccc21)c1ccc(-n2cnnn2)cc1 (stereo unspecified)
→ 0	-1	9	-4	-18	-21	7	i
O=C(Cc1cccs1)N1CCCC(c2nc3c(nnn3Cc3cccc(Cl)c3)c(=O)[nH]2)C1 (stereo unspecified)
→ ·	3	-1	7	·	·	6	i

New compounds follow:
SMILES	UUG fidelity	MT1-MMP act inh	MT1-MMP act inh RFP	eIF4H inh	CSC inhib	HIV Env fusion	PABP FP inh	Rce1 inhib
CC(O)[C@H]1CNCCN1CCc1cc(C(F)(F)F)cc(C(F)(F)F)c1 (stereo partly specified)	-11	-2	9	·	16	-10	·	i
COc1cc(/C=C2\C(=N)N3N=C(S(C)(=O)=O)SC3=NC2=O)ccc1OS(=O)(=O)c1ccccc1	·	·	·	12	-4	·	6	i
Cc1ccc(S(=O)(=O)N2CCC(C(=O)N3CCCC(C(F)(F)F)C3)CC2)cc1C (stereo unspecified)	4	0	-3	·	2	-19	·	i
CCn1c(SCC(=O)N/N=C/c2cccs2)nc2ccccc21	·	2	6	-4	-7	13	6	i
CCc1ccc(NC(=O)C(=O)NCCN2CCN(S(C)(=O)=O)CC2)cc1	·	0	0	-2	·	4	-2	i
O=C1C(Cl)=C(NCC2CCCO2)C(=O)N1Cc1ccccc1 (stereo unspecified)	-15	0	3	-9	5	-46	5	i
CC1=CC(=C(C#N)C#N)C=C(C)N1CCN1CCN(C(=O)Nc2cccc(Cl)c2)CC1	·	2	2	1	5	9	4	i
COc1ccccc1-n1c(SCC(=O)Nc2cccc(C)c2)nc2c(c1=O)SCC2	-6	-3	-3	0	-9	-4	-10	i
Cc1ccccc1OCc1nnc(SCC(=O)Nc2c(C)n(C)n(-c3ccccc3)c2=O)n1-c1ccccc1	·	2	-1	-5	-9	8	-3	i
COc1ccccc1C(=O)NCc1ccccc1	-6	2	1	1	-5	-8	8	i
Cc1ccccc1CN1CCN(C(C)C(=O)NNC(=O)c2ccc(F)cc2)CC1 (stereo unspecified)	-5	-5	-4	·	1	-9	·	·
Cc1cc(CSc2ccccc2)ccc1NC(=O)c1cccc([N+](=O)[O-])c1	-27	2	2	-4	-9	-33	-6	i

Complete entries, looked up by structure:
CCn1c(SCC(=O)N/N=C/c2cccs2)nc2ccccc21 as listed: UUG fidelity: ·; MT1-MMP act inh: 2; MT1-MMP act inh RFP: 6; eIF4H inh: -4; CSC inhib: -7; HIV Env fusion: 13; PABP FP inh: 6; Rce1 inhib: i
Cc1cc(CSc2ccccc2)ccc1NC(=O)c1cccc([N+](=O)[O-])c1 as listed: UUG fidelity: -27; MT1-MMP act inh: 2; MT1-MMP act inh RFP: 2; eIF4H inh: -4; CSC inhib: -9; HIV Env fusion: -33; PABP FP inh: -6; Rce1 inhib: i
